# Methyltransferases: Primary Screen for Target Class Profiling of Small Molecule Inhibitors of Methyltransferases | purified enzyme, MTase-Glo SAH luminescence; stronger effect = lower value | calls only at 40 µM | hit rate 3.9% among 25,000 | AID 1745853, 2022; active = -50% or lower on at least one of six enzymes; inconclusive = the cases between; inactive = as a rule above -30% on all six;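 also: enzymes were COMT GAMT GNMT HNMT NNMT and PNMT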
#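 Each enzyme was reacted with SAM and its substrate, with compounds tested once at 40 uM; SAH formed was read by MTase-Glo luminescence.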
# Calls only; i = inactive; ? = inconclusive; + = active, no number. % is scaled to controls: 0 for no effect and ±100 for the full control effect.
SMILES,Methyltransferases
Cc1noc2c(NCCCn3ccnc3)cc(-c3ccccn3)nc12,i
Cc1cc(F)ccc1NC(=O)Cn1c(=O)oc2cc(S(=O)(=O)N3CC(C)CC(C)C3)ccc21 (stereo unspecified),i
CC(C)OCCCn1c(=O)c2ccccc2n2c(SCC(=O)Nc3ccc(F)cc3F)nnc12,i
COCc1cc(NCCCNc2cccnc2)ncn1,+
O=C(C1CCOCC1)N1CCOC[C@H](Oc2ccccc2)C1,i
COc1ccc(N2CCN(C(=O)c3cc(NC(C)=O)cc4nc(C)ccc34)CC2)cc1,+
Cc1cccc(-c2nnn3c2nc(NCC2CCCO2)c2ccccc23)c1 (stereo unspecified),i
Cn1c(=O)c2ccc(C(=O)NC3CCCCC3)cc2n2c(=O)n(CC(=O)Nc3ccc(F)cc3)nc12,i
CCC(C)NC(=O)c1ccc2c(=O)n(CC(C)C)c3nn(C)c(=O)n3c2c1 (stereo unspecified),i
Cc1cccc(-c2ocnc2C(=O)N2CC[C@H](CO)[C@H](NC(=O)C3CC3)C2)c1,i
O=c1c2ccccc2n2c(-c3ccc(F)cc3)nnc2n1Cc1ccccc1,i
O=C(CCCc1ccccc1)Nc1ccnn1C1CCN(C(=O)CCc2cnccn2)CC1,i
CCN(CC)CCCCCCCCOC(=O)c1cc(OC)c(OC)c(OC)c1,?
O=C(Cc1ccccc1)NCc1ccnc2[nH]ccc12,i
C=Cc1ccc(Cn2nc3n(C)c(=O)c4ccc(C(=O)NC(C)CC)cc4n3c2=O)cc1 (stereo unspecified),i
Cc1ccc(Cn2nc3n(C)c(=O)c4ccc(C(=O)NC5CCCC5)cc4n3c2=O)cc1,i
COc1ccc(OC)c2c1cc1n2CC(C)(C(=O)NC2CCCCCC2)N(Cc2ccco2)C1=O (stereo unspecified),i
CCC(C)NC(=O)c1ccc2c(=O)n(C(C)C)c3nn(CC(=O)NCc4ccc(F)cc4)c(=O)n3c2c1 (stereo unspecified),i
O=c1[nH]c2ccc(S(=O)(=O)NCc3ccc(F)cc3)cc2[nH]1,i
BrC1C(Br)C(Br)C(Br)C(Br)C1Br (stereo unspecified),?
Cc1ccccc1CNC[C@H]1Cn2c(-c3ccccc3)cnc2CO1,i
COCCCNC(=O)CCc1nnc2n(Cc3ccccc3)c(=O)c3ccccc3n12,i
O=C(O)c1cnc(-c2ccccc2)nc1-c1ccncc1,i
O=C(CCc1nnc2n(Cc3ccc(F)cc3)c(=O)c3ccccc3n12)N1CCN(c2ncccn2)CC1,i
CC(=O)OC1C=C(C(=O)O)C2(CO)CCC(C)C(C)(CCc3ccoc3)C2C1 (stereo unspecified),?
COc1ccccc1N1CCN(C(=O)CCc2conc2-c2cccc(F)c2)CC1,i
CCCn1c(=O)c2ccccc2n2c(SCC(=O)NCc3ccccc3)nnc12,i
C=Cc1ccc(Cn2nc3n(CC(C)C)c(=O)c4ccc(C(=O)NC(C)CC)cc4n3c2=O)cc1 (stereo unspecified),i
O=C(Cn1ccc2cc(S(=O)(=O)N3CCCCC3)ccc21)NC1CCCC1,i
Cc1ccc(NC(=O)Cn2nc3n(C)c(=O)c4ccc(C(=O)NC5CCCCC5)cc4n3c2=O)c(C)c1,i
CN(Cc1ccccc1C(F)(F)F)S(C)(=O)=O,i
Cc1cccc(CN2C(=O)c3cc4ccccc4n3CC2(C)C(=O)NCCCOC(C)C)c1 (stereo unspecified),i
CC(C)(O)CCc1ccc(CN2CCN([C@H]3CCCC[C@@H]3O)CC2)cc1,i
CCCn1c(=O)c2ccccc2n2c(SCC(=O)Nc3ccccc3F)nnc12,i
CC(C)CCNC(=O)C1c2c(n(C)c3ccccc23)SCC(=O)N1Cc1ccc(F)cc1 (stereo unspecified),i
COc1c(/C=C/C(C)(C)O)ccc2c1C(=O)OCc1cc(C)cc(O)c1O2,i
CCCOCC(=O)N1CCCC(c2cc(N3CCCC3)nc(C)n2)C1 (stereo unspecified),i
Cc1cc(C)cc(NC(=O)Cn2c(=O)oc3cc(S(=O)(=O)N4CC(C)CC(C)C4)ccc32)c1 (stereo unspecified),i
COC(=O)c1ncn2c1C(=O)N(Cc1cc(OC)ccc1OC)C(C)(C(=O)NCc1ccccc1)C2 (stereo unspecified),i
CC(C)Cn1c(=O)c2ccc(C(=O)NC(C)C)cc2n2c(=O)n(Cc3ccc(F)cc3)nc12,i
Cc1[nH]c2ccccc2c1CN1CCc2nc(N3CCN(C)CC3)[nH]c(=O)c2CC1,i
COc1cc(O)ccc1OCCNCC(O)COc1cccc2[nH]c3ccccc3c12 (stereo unspecified),?
CCCCNc1ccc(-c2ccc(CN3CCOCC3)cn2)c(NC2CCC(O)CC2)c1 (stereo unspecified),i
COc1cc(Cl)c(NS(=O)(=O)c2ccc3c(c2)NC(=O)CC(=O)N3)c(OC)c1,i
COc1ccccc1Oc1c(NS(=O)(=O)c2ccc(C)cn2)nc(-c2ccncc2)nc1OC,i
CCc1cccc(NC(=O)Cn2nc3n(C(C)C)c(=O)c4ccc(C(=O)NC(C)C)cc4n3c2=O)c1,i
CC(C)c1ccc(S(=O)(=O)c2nnn3c2nc(N)c2ccccc23)cc1,i
N#C/C(=C\c1ccc(O)c(O)c1)C(=O)c1ccc(O)c(O)c1,?
Cc1ccc(-c2ccccc2CN2CCN(C(=O)c3ccc(C(F)(F)F)cc3)CC2)cc1Cl,i
CCc1nc2c(=O)n(CC(=O)NCCC3=CCCCC3)nc(C)c2s1,i

# More structures follow:
SMILES,Methyltransferases
COCCCNC(=O)C(NC(=O)C1CC1)C1CCN(C(=O)c2ccc(C)cc2)CC1 (stereo unspecified),i
CC(C)(C)CN1CCC2(CC1)COc1ccccc1[S+](=O)([O-])N2,i
CC(C)CCN1C(=O)c2ccccc2CC1(C)C(=O)NC1CCCCC1 (stereo unspecified),i
C/C(=C1/C(=O)Nc2ccc(NC(N)=O)cc21)c1ccc[nH]1,?
CCC1OC(=O)C(C)CC(C)C(=O)/C(C)=C/C(C)C(=O)/C=C/C1(C)O (stereo unspecified),i
CCn1ccnc1CN1CCCC(CO)(Cc2cccc(Cl)c2)C1 (stereo unspecified),i
Cn1cncc1CN1CCC2(CCN(C3CCOCC3)CC2)C(CO)C1 (stereo unspecified),i
CN1C(=O)c2cc(C(=O)NCc3ccccc3Cl)nn2CC1(C)C(=O)NC1CCCCCC1 (stereo unspecified),i
CNC(=O)c1noc([C@@H]2CC(F)(F)CN2Cc2cccn2C)n1,i
Cc1ccc(Cl)cc1N1C(=O)c2cc3occc3n2CC1(C)C(=O)NC1CCCCC1 (stereo unspecified),i
O=C(c1ccccn1)N1CC(F)(F)C[C@H]1c1nc(-c2ncccn2)no1,i
CCC1Oc2ccc(NC(=O)Cc3cccs3)cc2CN(C2CCCc3ccccc32)C1=O (stereo unspecified),i
CC1(C)CC[C@]2(C(=O)OC3OC(CO)C(O)C(O)C3O)CC[C@]3(C)C(=CCC4[C@@]5(C)C[C@@H](O)[C@H](OC6OC(C(=O)O)C(O)C(O)C6O)C(C)(C)C5CC[C@]43C)[C@@H]2C1 (stereo partly specified),i
COCCN1C(=O)CC[C@]2(C(=O)NCc3cccs3)CCCC[C@@H]12,i
O=C([C@@H]1C[C@H](F)CN1C(=O)c1cccs1)N1CCOCC1,i
Cc1ccc(CNC(=O)C2(C)Cn3cnc(C(=O)NCc4ccccc4Cl)c3C(=O)N2C2CC2)cc1 (stereo unspecified),i
O=C1C[C@H]2CC[C@@H](CN1)N2Cc1ccc(OCc2ccccc2)cc1,i
COc1cccc(N2C(=O)NC(=NC3CCCCC3)C23CCCN(Cc2ccsc2)C3)c1 (stereo unspecified),?
N[C@@H](CCNCc1ccc(Cl)cc1)C(=O)N1CCCCC1,i
COc1ccc(CCN(Cc2ccccn2)C(=O)[C@H]2CCC[C@H](O)C2)cc1,i
CO[C@H]1[C@@H](O)[C@H](O[C@H]2CC[C@@]3(C)C(CCC4C3CC[C@]35COC6(COC(=O)C6)C3CCC45O)C2)O[C@@H](C)[C@@H]1OC1OC(CO)C(OC2OC(CO)C(O)C(O)C2O)C(O)C1O (stereo partly specified),i
CC(CCO)CCC1C2(C)CCCC(C)(C)C2CC[C@@]1(C)O (stereo partly specified),i
CCCCN1C(=O)c2cc(C(=O)NCc3ccc(C)cc3)nn2CC1(C)C(=O)NC1CCCC1 (stereo unspecified),i
C=CC(C)(C)c1[nH]c2ccccc2c1C[C@@H]1NC(=O)[C@H](C)NC1=O,i
CNC(=O)c1noc([C@@H]2CC(F)(F)CN2Cc2cnn(C(C)C)c2)n1,i
Nc1n[nH]c(N)c1N=Nc1ccc(O)cc1,?
CC(C)OC(=O)N1CCC(Oc2ncnc3c2cnn3-c2ccc(S(C)(=O)=O)cc2F)CC1,i
Cc1cc2c(cc3n2CC(C)(C(=O)NC2CCCCCC2)N(c2cc(Cl)ccc2C)C3=O)o1 (stereo unspecified),i
COc1cccc(C2c3cccn3-c3sc4c(c3CN2C(=O)Nc2ccccc2OC)CCCC4)c1 (stereo unspecified),i
COc1ccc2c(c1)C(COCc1ccc(S(C)(=O)=O)cc1)CC(C)(C)O2 (stereo unspecified),i
C=C(C)C(=O)O[C@H]1[C@H]2C(=C)C(=O)O[C@@H]2C[C@@H](C)[C@@H]2O[C@@H]2C(=O)[C@](C)(O)[C@@H]1OC(=O)C(=C)C,i
CCCn1cc(-c2ccncc2)cc1C(=O)NCc1ccc(C)o1,i
O=C(Cc1ccccc1)N1CCCC1c1nc(CCOCC2CC2)no1 (stereo unspecified),i
CC(C)S(=O)(=O)N1CCC(N(Cc2cccnc2)C2CCOCC2)CC1,i
COc1cccc(C(=O)Cn2nc3n(Cc4ccccc4)c(=O)c4ccccc4n3c2=O)c1,i
COc1cc(/C=C(\C#N)C(=O)Nc2nnc(C(F)(F)F)s2)ccc1OCc1ccc(C(F)(F)F)cc1C(F)(F)F,i
CCc1ccc(S(=O)(=O)c2nnn3c2nc(NC(C)C)c2cc(Cl)ccc23)cc1,i
CCCCN1C(=O)c2cc(C(=O)Nc3c(C)cc(C)cc3C)nn2CC1(C)C(=O)NC1CCCC1 (stereo unspecified),i
COc1ccc(CCNC(=O)c2c(C)noc2-c2cccs2)cc1OC,i
CC(C)(C)c1cc2n(n1)CC(C)(C(=O)NC1CCCCC1)N(Cc1ccc(Cl)cc1)C2=O (stereo unspecified),i
C=CCOc1cccc(-c2nc(C(=O)NCc3cccc(F)c3)cs2)c1,i
C[C@H]1CC[C@@]2(OC1)O[C@H]1CC3C4CC[C@H]5C[C@@H](O)[C@H](O)C[C@]5(C)C4=CC(=O)[C@]3(C)[C@H]1[C@@H]2C (stereo partly specified),i
CC1CCN(S(=O)(=O)c2ccc3c(c2)oc(=O)n3CC(=O)NCCc2ccccc2)CC1,i
CCOc1ccc(NC(=O)N2CCn3c(C)ccc3C2CC)cc1 (stereo unspecified),i
CC1(C(=O)NC2CCCC2)Cn2c(cc3sccc32)C(=O)N1Cc1cccc(F)c1 (stereo unspecified),i
Cc1ccc(-c2n[nH]n3c2nc(=O)c2ccc(C(=O)NCc4ccccc4Cl)cc23)cc1,i
COc1cccc(Nc2nc3c(S(=O)(=O)c4ccc(C)cc4)nnn3c3ccccc23)c1,i
O=C1CCC2(CCN1)CCN(S(=O)(=O)c1cccnc1)CC2,i
O=C(CN1CC2CC(C1)[C@H]1CCCC(=O)N1C2)N1CCCCC1 (stereo partly specified),i
Cc1ccc(Cn2c(=O)c3ccccc3n3c(CCC(=O)N4CCN(c5ncccn5)CC4)nnc23)cc1,i

# In the list so far, 3 contain an aryl thioether with sulfur outside any ring.
SMILES,Methyltransferases
CC(C)OCCCn1c(=O)c2ccccc2n2c(SCC(=O)Nc3ccc(F)cc3F)nnc12,i
CCCn1c(=O)c2ccccc2n2c(SCC(=O)NCc3ccccc3)nnc12,i
CCCn1c(=O)c2ccccc2n2c(SCC(=O)Nc3ccccc3F)nnc12,i

# Other results
SMILES,Methyltransferases
CCCN1C(=O)c2ccc(-c3ccco3)n2CC1(C)C(=O)NC1CCCCCCC1 (stereo unspecified),i
C/C=C(/C)C(=O)O[C@H]1C=C(CO)C(=O)[C@H](OC(=O)/C(C)=C/CO)[C@H]1C(C)C,+
COc1ccccc1CNC(=O)CCc1nnc2n(Cc3ccccc3)c(=O)c3ccccc3n12,i
CCCn1c(=O)sc2cc(NS(=O)(=O)c3ccc4c(c3)n(C)c(=O)n4C)ccc21,i
COc1ccc(CCNC(=O)CCc2nnc3n(Cc4ccccc4)c(=O)c4ccccc4n23)cc1OC,i
CC(C)OCCCNC(=O)CNC(=O)C1(C)Cn2c(cc3ccccc32)C(=O)N1C (stereo unspecified),i
COc1ccccc1CNC(=O)C1c2c(n(C)c3ccccc23)SCC(=O)N1Cc1ccco1 (stereo unspecified),i
CCCn1c(=O)c2cc(Cl)ccc2n2c(SCC(=O)Nc3ccc(Cl)cc3)nnc12,i
C=CCn1c(=O)c2ccc(C(=O)NC(C)C)cc2n2c(=O)n(CC(=O)NCc3ccc(C)cc3)nc12,i
Nc1nc(NC2CC2)cc(-c2cccc(Cl)c2Cl)n1,+
O=C(Cn1nc2n(Cc3ccc(F)cc3)c(=O)c3ccccc3n2c1=O)Nc1ccc(Cl)cc1,i
Cc1noc(=O)c2ccc(NC(=O)C(O)(CC(C)(C)c3cccc4c3OCC4)C(F)(F)F)cc12 (stereo unspecified),i

# Two entries picked at random from the list so far, as already listed:
SMILES,Methyltransferases
CCCN1C(=O)c2ccc(-c3ccco3)n2CC1(C)C(=O)NC1CCCCCCC1 (stereo unspecified),i
CCCn1c(=O)c2cc(Cl)ccc2n2c(SCC(=O)Nc3ccc(Cl)cc3)nnc12,i

# Compound activity deposited in PubChem by National Center for Advancing Translational Sciences (NCATS).

# This is a subset. The share of hits here may be higher or lower than overall.
